D2 potentiator – positive allosteric modulators of human D2 dopamine receptor. P14416. DiscoveRx D2 beta-arrestin cells, luminescence, 90 min; 100% = 57 uM dopamine signal. potentiation, % (concentration not given with the values). 0.23% of 360,000 active; active = potentiation of 50% or more; inconclusive = 30% to 50%; inactive = 30% or less;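 note: compound concentration not given in the record; tested on top of an EC20 dose of dopamine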
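D2 cells co-treated with compound plus 50 nM dopamine (EC20) for 90 min at 37 deg C to detect potentiation. Beta-arrestin recruitment was read as enzyme-fragment luminescence after 1 h at ambient temperature. Full response was set by 57 uM dopamine.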
gsp ag – activates gsp, the McCune-Albright syndrome mutation | Potency, µM (top dose mostly 76.9 µM), inactives show at the highest dose activation (cAMP increase), hits mostly activators | 0.13% of 340,000 active | AID 624287 | gsp mutant cells, cAMP HTRF, 30 min; control for the full effect not named in the record; active = well fitted activation curve with a large enough effect; inconclusive = small, poorly fitted or top-dose-only effect, or another doubt; inactive = no such curve, though single readings can be large or run the other way; cell line not stated here;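 note: phosphodiesterase inhibitor Ro 20-1724 added with compounds to block cAMP breakdown; potency is the fitted concentration of half-maximal effect; nearly all actives have a fitted effect of over 60% in size; about a fifth of the inactives were tested at one dose only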
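Cells stably selected in G418 were plated at 2000/well, grown 16-24 hr, then given compounds in DMSO with the PDE inhibitor […] (300 uM solution added) for 30 min at 37C; cAMP was read by HTRF.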
gsp antagonist – gsp mutant antagonism. gsp-mutant cells, cAMP HTRF, 30 min; control for the full effect not named in the record. AID 624288. 0.4% of 340,000 active. Potency, µM (series often up to 76.9 µM), without a hit: top-dose activity change, negative = inhibition, most hits filed as inhibitors; active = falling curve of any shape with a large fitted effect; inconclusive = falling curve, mostly with a smaller effect; inactive = flat or rising curve; cell line not stated here;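 note: intracellular cAMP measured with PDE inhibitor Ro 20-1724 present during compound exposure; potency is the fitted concentration of half-maximal effect; % is set by controls: 0 for no effect and ±100 for the full control effect; nearly all actives have a fitted effect of over 65% in size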
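Cells, 2000/well, grown 16–24 h in DMEM 10% FBS with 0.5 mg/ml G418, then compounds plus […] (300 uM addition stock), 30 min at 37C. cAMP read by HTRF (cAMP-d2 and anti-cAMP antibody-K in lysis buffer) after 30 min RT.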
Sfp inh – Sfp phosphopantetheinyl transferase inhibition; Q9F4F7; Biochemical Sfp PPTase activity, qHTS; Potency, µM, for inactives: max response, negative = inhibition, most hits filed as inhibitors; 3.5% of 310,000 active; AID 1490; active = well fitted inhibition curve with a large enough effect; inconclusive = small, poorly fitted or top-dose-only effect, or another doubt; inactive = no such curve, though single readings can be large or run the other way;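 note: the enzyme is Sfp with the accession as filed and its product quenches rhodamine fluorescence; potency is the fitted concentration of half-maximal effect; 0% = enzyme reaction without inhibitor and -100% = no enzyme wells; top concentration of the series not given in the record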
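Step 1, compound plus 15 nM Sfp-PPTase, 15 min, room temperature. Step 2, add rhodamine-CoA (5 uM) and BHQ-2-YbbR (12.5 uM). Step 3, read 525/598 nm fluorescence at 0 and 30 min.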
TRPV1 potentiator – human TRPV1 potentiation; TRPV1-expressing cells, Fluo-8 calcium influx, capsaicin EC20 potentiation; host cell line not named in the record; control for the full effect not named in the record; potentiation, % at 8.33 µM; 0.02% of 320,000 active; AID 540277; active means potentiation above 80%; inconclusive means 30% to 80%; inactive means below 30%; note: 0% is about no effect
Target sequence (Q8NER1 whole entry, looked up): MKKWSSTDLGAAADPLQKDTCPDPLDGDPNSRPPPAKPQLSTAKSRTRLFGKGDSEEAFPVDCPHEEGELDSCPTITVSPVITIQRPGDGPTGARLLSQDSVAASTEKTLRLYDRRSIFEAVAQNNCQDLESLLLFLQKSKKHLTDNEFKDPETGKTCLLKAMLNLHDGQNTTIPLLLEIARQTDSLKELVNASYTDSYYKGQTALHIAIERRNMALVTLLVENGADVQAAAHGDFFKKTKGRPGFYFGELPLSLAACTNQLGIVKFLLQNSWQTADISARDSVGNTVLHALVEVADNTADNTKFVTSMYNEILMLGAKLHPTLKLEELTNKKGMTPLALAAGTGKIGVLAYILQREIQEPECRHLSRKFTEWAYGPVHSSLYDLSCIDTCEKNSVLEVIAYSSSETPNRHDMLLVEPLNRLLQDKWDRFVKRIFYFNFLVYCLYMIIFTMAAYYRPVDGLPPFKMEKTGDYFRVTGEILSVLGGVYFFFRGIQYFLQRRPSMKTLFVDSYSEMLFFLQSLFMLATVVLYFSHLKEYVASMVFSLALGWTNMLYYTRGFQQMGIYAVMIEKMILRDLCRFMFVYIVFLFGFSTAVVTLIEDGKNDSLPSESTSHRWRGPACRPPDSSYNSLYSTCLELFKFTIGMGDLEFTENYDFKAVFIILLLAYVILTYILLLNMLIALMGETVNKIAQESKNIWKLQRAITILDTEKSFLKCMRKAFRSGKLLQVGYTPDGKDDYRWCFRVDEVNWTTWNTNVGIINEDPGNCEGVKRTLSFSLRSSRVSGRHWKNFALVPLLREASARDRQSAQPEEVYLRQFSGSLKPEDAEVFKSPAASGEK
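Cells expressing TRPV1 were dye-loaded with Fluo-8 and read kinetically: 10 s baseline, 3 min after compound (agonist portion), then 2 min after EC20 capsaicin (allosteric enhancer portion). Calcium-bound dye fluorescence at 480/520 nm.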
Menin-MLL FL inh – displaces fluorescein MLL peptide from human menin. Fluorescence polarization, fluorescein-MLL peptide displacement from menin. FP activity change, % at 61.4 µM. 290,000 tested, under 10 active. AID 1766; inconclusive = falling polarisation curve, or a change in total fluorescence; inactive = total fluorescence flat and polarisation flat or rising; no compound was filed as active; the % refers to the polarisation; negative = inhibition;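 note: % of control where 0% means no effect; inhibitors lower the polarisation; unlabelled MLL peptide was the positive control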
ClpP mod – qHTS Assay for Activators of ClpP; ATP-dependent Clp protease proteolytic subunit (Bacillus subtilis (strain 168)), P80244; purified B. subtilis ClpP, FRET peptide cleavage, 20 min; Potency, µM (highest dose often 57.5 µM), without a hit: at the top dose activity change, negative = active; AID 651965, 2013; 1.9% of 340,000 active; active = well fitted falling curve with a large enough effect; inconclusive = small, poorly fitted or top-dose-only effect; inactive = no such curve, though single readings can be large or run the other way; note: potency is the fitted concentration of half-maximal effect; the source files actives as falling curves though it sought activators and does not explain the sign; nearly all actives have a fitted effect of over 65% in size; many hits overshoot -100%
Target sequence (P80244 whole entry, looked up): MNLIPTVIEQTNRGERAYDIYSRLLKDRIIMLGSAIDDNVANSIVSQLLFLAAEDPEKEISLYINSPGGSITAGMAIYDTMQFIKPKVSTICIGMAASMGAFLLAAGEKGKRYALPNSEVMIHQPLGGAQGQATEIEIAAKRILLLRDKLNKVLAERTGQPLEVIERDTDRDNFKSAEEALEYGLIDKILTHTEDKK
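FRET quenching reversal measured ClpP activation: 10 microg/mL B. subtilis ClpP at pH 8 with the FRET-FV decapeptide, read at 430 nm after 320 nm excitation. The 20-min minus 0-min signal was scaled between DMSO/no-enzyme wells and ADEP (5.8 microM final).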
The depositor's hits bear a star; ? = inconclusive; nt = not tested or not shown; & = joins results of further samples; [ ] = another dose, or the depositor's remark.

SMILES	D2 potentiator	gsp ag	gsp antagonist	Sfp inh	TRPV1 potentiator	Menin-MLL FL inh	ClpP mod
Cc1nc(C)c(C(=O)N(c2ccc(F)cc2)C(C(=O)NCC2CCCO2)c2ccccc2)s1 (stereo unspecified)	-4	-2%[15.4 µM]	7%	6%	?	-0.9	0.5%
O=C(c1ccc(NC(=S)Nc2ccc(F)cc2F)cc1)N1CCOCC1	5	-97%[inhibitor]	-9%	-27%	-1	-1.0	-1.5%
Cc1[nH]cc(Br)c(=O)c1Oc1ncc(C(F)(F)F)cc1Cl	-6	1%	-1%	15%	?	1.5	nt
S=C(NC1CCCC1)NC1CCCC1	-1	-68%[inhibitor]	10%	20%	-29	3.6	-1.2%
C#CCOCCOCCOCCNc1nc(N2CCOCC2)nc(N2CCN(C(=O)[C@H]([C@@H](C)CC)n3cc([C@@H](N)CC(C)C)nn3)CC2)n1	-25	-26%	3%	12%	-10	-1.2	-2.9%
Cc1ccc(S(=O)(=O)/N=C(/c2ccccc2)N(C)c2ccc(O)cc2)cc1	-4	-71%[inhibitor]	-3%	9%	?	-2.3	0.9%
C[C@@H]1CCCCO[C@H](CN(C)C(=O)Cc2ccccc2)[C@@H](C)CN([C@H](C)CO)C(=O)c2cc(N(C)C)ccc2O1	6	-42%[inhibitor]	nt	nt	nt	nt	0.9%
Cn1ccc(C(=O)Nc2sc3c(c2C#N)CCC3)n1	-15	-50%[inhibitor]	-22%	-19%	-10	nt	0.8%
Cc1ccc(CC(=O)Nc2ccc(Cl)cn2)cc1	?	-40%[inhibitor]	-1%	11%	-7	-1.1	-0.5%
COc1ccc(F)cc1C(=O)C1CCCN(C(=O)C2=C(C)OCCO2)C1 (stereo unspecified)	-3	-18%	6%	-2%	-8	-3.2	-6.8%
CC(/C=N/N1CCN(c2ccccc2)CC1)=C\c1ccco1	-9	2%	-2%	11%	11	4.9	-0.1%
COC(=O)C1=C(C)NC(C)=C([N+](=O)[O-])[C@H]1c1ccccc1C(F)(F)F	nt	nt	nt	15%	nt	-0.7	0.5%
CCN=c1sc(C(=O)NCCc2ccccc2)cc(=O)n1CC	-13	0%	12%	56µM*	-6	-3.4	-0.8%
Cc1ccc(S(=O)(=O)c2nc(S(=O)(=O)c3ccc(C)cc3)c(N3CCN(CCO)CC3)s2)cc1	-31	10%	-24%	-8%	11	nt	-2.4%
COC(=O)c1sc(N(C)C)c(C#N)c1-c1ccccc1	1	-1%[15.4 µM]	14%	18%	-13	5.4	nt
Cc1cc(C)cc(NC(=O)CN2CCN(c3ccccn3)CC2)c1	-25	5%[15.4 µM]	5%	-6%	-11	1.3	-1.5%
COC(=O)CN(c1ccc(C)cc1)S(=O)(=O)c1c(C)[nH]c(=O)[nH]c1=O	-4	-31%[inhibitor]	2%	16%	2	-2.1	0.6%
O=S(=O)(/C=C/c1ccccc1)N1CCN(c2nc(-c3cccnc3)nc3ccccc23)CC1	-8	23%	-23%	-2%	22	16	nt
Cc1nc(/C=C\C(=O)O)c2cc(C)oc2n1	-13	0%[15.4 µM]	-2%	25%	2	-1.2	nt
CCN(CC)CCn1c(SCC(=O)NCc2ccco2)nc2c(sc3ccccc32)c1=O	-9	17%	5%	?	18	-0.2	-24%
c1ccc(Nc2nc(N3CCCCC3)nc(N3CCNCC3)n2)cc1	-15	-76%[inhibitor]	10%	?	3	-0.8	-0.4%
S=c1[nH]nc(-c2n[nH]c3c2CCC3)n1/N=C/C=C/c1ccccc1	-22	0%	-7%	-1%	29	1.2	-3.5%
Cc1ccc(S(=O)(=O)/N=C(/c2ccccc2)N2CCOCC2)c(C)c1	5	9%	2%	17%	17	2.2	nt
COc1ccccc1N(C)S(=O)(=O)c1ccc(C(=O)N2CCC(C(N)=O)CC2)cc1	-2	19%	16%	-2%	13	-3.3	0.5%
O=C(NCCSc1ccc(Cl)cc1)c1ccco1	-9	7%	1%	4%	-22	5.5	0.2%

More results.
SMILES	D2 potentiator	gsp ag	gsp antagonist	Sfp inh	TRPV1 potentiator	Menin-MLL FL inh	ClpP mod
Cn1cccc1Cc1nnc(SCC(=O)N2CCCC2)n1CCc1ccccc1	-6	6%	-1%	15%	-15	-0.7	1.5%
Cc1ccc(-c2nn(-c3cc(N4CCNCC4)ccc3[N+](=O)[O-])c(=O)c3ccccc23)cc1	-5	-17%[15.4 µM]	-5%	-26%	6	2.4	nt
COc1cc(/C=N/N2CCN(Cc3ccc(Cl)cc3)CC2)ccc1OC(C)=O	-68	-23%	1%	8%	5	4.6	1.0%
CC(NC(=O)C1CCCCC1)C(c1cccs1)N1CCOCC1 (stereo unspecified)	1	-33%[inhibitor]	7%	11%	-11	3.0	-0.7%
CC(=O)c1ccc(OCc2cc(C(=O)N(C)C3CCOC3)no2)cc1 (stereo unspecified)	-7	20%	11%	15%	?	nt	-0.5%
COc1ccc(NC(=O)c2cncc(Br)c2)c(S(=O)(=O)N2CCOCC2)c1	-6	-1%	9%	17%	-3	4.4	0.6%
Cc1cc(C)cc(N2C(=O)CC(Sc3nnnn3-c3ccccc3)C2=O)c1 (stereo unspecified)	-8	?	3%	-23%	-7	-1.5	-3.0%
COc1ccc(C(Nc2ccc(S(=O)(=O)N3CCOCC3)cc2)C(=O)NCCC(C)C)cc1OC (stereo unspecified)	-1	-1%[15.4 µM]	3%	13%	22	0.4	-0.1%
CCCN(CC1CC1)C(=O)CSc1ncnc2sccc12	-2	-14%	-3%	-49%	-24	2.0	0.4%
COc1cc(SC)ccc1C(=O)Nc1cc(C)ccn1	-1	?	-21%	5%	-21	3.4	-4.4%
CC1CCN(c2c(NCC3CCC(C(=O)NCc4ccccc4)CC3)c(=O)c2=O)CC1 (stereo unspecified)	-9	-75%[inhibitor]	-9%	5%	-28	-0.1	-2.3%
CC(=O)c1ccc(C(=O)NC2CCCN(Cc3ccc(Cl)cc3)C2)s1 (stereo unspecified)	-35	?	7%	16%	-9	nt	0.7%
C[C@H]1CN([C@@H](C)CO)C(=O)CCCn2nncc2CO[C@@H]1CN(C)C(=O)Nc1ccc2c(c1)OCO2	10	?	nt	nt	nt	nt	0.5%
CN(C)c1ccc(C(=S)NCc2ccco2)cc1	-2	-32%[inhibitor]	1%	14µM*	-31	18	-0.6%
COc1ccc(NC(=S)Nc2ccccc2)c(OC)c1	-8	2%	8%	-18%	-12	-0.7	0.8%
COc1ccccc1C(=O)Nc1ccc(S(=O)(=O)Nc2onc(C)c2C)cc1	-12	?	17%	9%	4	3.4	0.1%
Cc1ccc(N(CC(=O)NCc2ccccc2)C(=O)CCC(=O)Nc2nccs2)cc1	-20	2%[15.4 µM]	nt	-6%	25	-4.3	nt
COc1cc2ncnc(NCc3ccc(C)o3)c2cc1OC	-13	6%	0%	-3%	-9	0.4	-2.7%
CCOc1ccccc1NC(=O)CC1(CC(=O)N2CCOCC2)CCCC1	-7	-6%[15.4 µM]	-9%	nt	-11	nt	nt
Oc1cccc2oc(=S)[nH]c12	-6	-1%	2%	nt	nt	nt	nt
Cc1cccc(-c2c3c(=O)n(C)c(=O)n(C)c3cn2-c2ccccc2O)c1	-2	21%	14%	50µM*	3	-0.9	?
CN1CCN(CC(=O)N2c3ccccc3Sc3ccccc32)CC1	-16	15%	6%	3%	8	-0.1	-0.5%
CCOC(=O)c1cc(C(=O)OCC)c2cccc(C)n2c1=O	-12	?	-3%	13%	2	3.8	-9.4%
COc1cccc(NC(=O)CN(C)C(=O)c2ccc3[nH]c4c(c3c2)CC(C)CC4)c1 (stereo unspecified)	-15	5%	-32%	nt	1	nt	-0.8%
Cc1cc(C(=O)NCCC2=CCCCC2)c(C)o1	3	1%	-2%	35µM*	-9	1.8	-2.6%

More results
SMILES	D2 potentiator	gsp ag	gsp antagonist	Sfp inh	TRPV1 potentiator	Menin-MLL FL inh	ClpP mod
Cc1cc2ccccc2n1CCNC(=O)C(C)C	-3	4%	-3%	-5%	-23	2.4	-13%
CCOC(=O)/C(=C/c1ccc(N2CCC(c3ccccc3)=N2)cc1)C(C)=O	0	-2%[15.4 µM]	5%	0%	-7	?	nt
Cn1c(NCc2ccco2)nc2c1c(=O)n(Cc1ccc(Cl)cc1Cl)c(=O)n2C	6	-15%	-10%	-11%	5	2.0	0.8%
Cc1cc(C(=O)OCC(=O)NCc2ccccc2Cl)c(C)o1	-3	-11%[15.4 µM]	nt	19%	-8	-4.5	nt
Cc1cc(C(=O)N2CCCC(CO)(Cc3ccc(F)cc3)C2)c(C)o1 (stereo unspecified)	-28	-2%[15.4 µM]	4%	6%	1	nt	-24%
Cc1nc2c3cc(F)ccc3n(Cc3ccc(F)cc3)c2s1	-6	?	7%	?	-6	5.0	2.7%
CC(C)CN(C(=O)CCc1ccccc1Cl)c1c(N)n(Cc2ccccc2)c(=O)[nH]c1=O	15	3%	-1%	nt	5	nt	0.7%
COc1ccccc1Oc1nc2ccccn2c(=O)c1/C=C(\C#N)C(=O)Nc1c(C)n(C)n(-c2ccccc2)c1=O	0	-3%[15.4 µM]	-1%	2%	11	-4.4	nt
CCOc1ccc2nc(Nc3nc(CSc4nnnn4-c4ccccc4)cc(=O)[nH]3)nc(C)c2c1	17	4%	-12%	?	6	1.4	-1.0%
COc1ccc(-c2c3c(=O)n(C)c(=O)n(C)c3cn2C2CCCCC2)cc1	-34	?	-1%	-23%	-9	-2.3	16µM*
O=C(NCc1ccc(Cl)cc1)C(=O)NCC1OCCCN1S(=O)(=O)c1cccs1 (stereo unspecified)	2	25%	3%	7%	7	nt	-3.0%
CCn1cc(C(=O)O)c(=O)c2cnc(N3CCN(C(=S)NC(=O)c4ccc(OC)cc4)CC3)nc21	1	7%[15.4 µM]	-10%	7%	?	1.0	nt
CCC(C)Sc1ccc(-c2nc3cc(C)ccn3c2NC2CCCCC2)cc1 (stereo unspecified)	-6	?	-12%	nt	nt	nt	4.6%&4.2%
Cn1c(=O)c(=O)n(C)c2cc(S(=O)(=O)NCCc3ccccc3)ccc21	2	?	5%	9%	-2	0.7	-20%

Individual results from above:
In gsp antagonist, `CC(/C=N/N1CCN(c2ccccc2)CC1)=C\c1ccco1` has the entry -2%
In D2 potentiator, `C[C@@H]1CCCCO[C@H](CN(C)C(=O)Cc2ccccc2)[C@@H](C)CN([C@H](C)CO)C(=O)c2cc(N(C)C)ccc2O1` has the entry 6

Compound activity as filed in PubChem.
